A488 fluor = A488 region autofluorescence. compound autofluorescence, A488 spectral region, dye equivalency; active compounds read high. max dye equivalency, M. actives 0.1% (n = 59,000); active = above 10 nM dye equivalent; inconclusive = 1 to 10 nM; inactive = 1 nM or less; about half of its hits are not listed in these tables;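 further: highest value over a series up to 38 µM; compound alone in buffer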
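Compounds pin-transferred into 100 mM Tris buffer, pH 8.0, incubated 15 min at room temperature, then imaged with 480 nm excitation/540 nm emission filters. Fluorescence converted to Alexa 488 dye-equivalent concentration via an on-plate six-point A488 standard curve.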
Resorufin autofl = compounds fluorescent in resorufin spectral region. Compound fluorescence, resorufin region 547/598 nm, buffer; active compounds read high. max dye-equivalent concentration, M. actives 0.04% (n = 59,000). AID 588; active = above 10 nM dye equivalent; inconclusive = 1 to 10 nM; inactive = 1 nM or less; a few of its hits are not listed in these tables; further: highest value over a series up to 38 µM
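Intrinsic fluorescence profiled in the resorufin window (ex 547 nm, em 598 nm) after 15 min at room temperature in pH 8.0 Tris buffer (100 mM); responses normalized against a six-point resorufin standard series as dye-equivalent concentration.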
TSHR agonist = activates the human thyroid stimulating hormone receptor | actives 0.48% (n = 73,000) | Potency, µM (series often up to 57.1 µM), for the others: at the highest dose activation, usual class: activators | P16473 | HEK293-CNG-TSHR cells (CNG channel as cAMP sensor), membrane potential dye, cAMP; active = well fitted activation curve of enough size with the parental cells flat; inconclusive = any curve in the parental cells; inactive = parental cells flat and receptor cells flat or falling; further: potency means the concentration at half of the fitted maximal effect; % of control where 0% means no effect; weak receptor curves with flat parental cells got no call and are not listed
Target sequence (P16473 whole entry, looked up): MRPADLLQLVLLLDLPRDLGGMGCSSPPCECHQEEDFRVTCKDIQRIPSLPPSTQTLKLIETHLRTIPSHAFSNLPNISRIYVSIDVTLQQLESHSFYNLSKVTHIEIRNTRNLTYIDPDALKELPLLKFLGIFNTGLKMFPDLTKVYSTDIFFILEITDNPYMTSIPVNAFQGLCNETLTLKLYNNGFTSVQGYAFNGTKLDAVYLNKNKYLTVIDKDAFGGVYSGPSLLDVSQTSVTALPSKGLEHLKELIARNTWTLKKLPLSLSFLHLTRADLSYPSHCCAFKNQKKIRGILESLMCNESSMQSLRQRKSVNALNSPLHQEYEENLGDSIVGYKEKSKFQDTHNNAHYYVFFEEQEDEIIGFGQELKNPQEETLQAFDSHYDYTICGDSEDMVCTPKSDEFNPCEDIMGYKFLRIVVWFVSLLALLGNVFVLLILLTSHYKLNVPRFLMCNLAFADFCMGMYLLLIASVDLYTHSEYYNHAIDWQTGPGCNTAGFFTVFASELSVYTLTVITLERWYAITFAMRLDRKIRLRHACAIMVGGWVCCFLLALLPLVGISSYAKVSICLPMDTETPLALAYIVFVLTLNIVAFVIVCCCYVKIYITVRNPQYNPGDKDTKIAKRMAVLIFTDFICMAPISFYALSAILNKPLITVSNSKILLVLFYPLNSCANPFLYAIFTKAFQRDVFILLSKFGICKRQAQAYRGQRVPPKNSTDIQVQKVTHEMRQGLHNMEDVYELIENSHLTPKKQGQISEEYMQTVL
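HEK 293 cells stably expressing TSHR and a cAMP-gated CNG channel; parental CNG-only cells as counterscreen. Cells preloaded 60 min with membrane potential dye plus 100 uM RO 20-1724, then compound 30 min; fluorescence read at 590 nm.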
A647 autofl = compound autofluorescence in A647 spectral region; Compound fluorescence, A647 channel (570/671 nm), Tris buffer; max dye-equivalent concentration, M; 59,000 tested, under 10 active; AID 592; active means above 1 µM dye equivalent; inconclusive means 0.1 to 1 µM; inactive means 0.1 µM or less;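 further: values scaled relative to a standard on each plate; highest value over a series up to 38 µM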
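Compound fluorescence was measured in 100 mM Tris buffer, pH 8.0, after 15 min at room temperature, using 570 nm excitation and 671 nm emission filters. Signal was normalized to a per-plate Alexa 647 standard curve and expressed as dye-equivalent concentration at each compound concentration.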
AID923 = qHTS Assay for Allosteric/Competitive Inhibitors of Caspase-1: Spectroscopic Profiling in AFC Spectral Region | actives 1.1% (n = 75,000) | compound fluorescence, AFC spectral region (405/520 nm); almost no hit is shown here | Potency, µM (highest dose often 57.5 µM), without a hit: top-dose fluorescence increase, most hits filed as activators; active means well fitted activation curve with a large enough effect; inconclusive means small, poorly fitted or top-dose-only effect;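 further: potency means the concentration at half of the fitted maximal effect; 0% is about no effect; scaled to a free AFC standard on each plate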
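Compound autofluorescence profiled at 405 nm ex/520 nm em during kinetic caspase 1 run (50 nM enzyme, 5 uM Ac-WEHD-AFC, HEPES pH 7.5, 10 mM DTT). Titration up to 57 uM; baseline from regression intercept, normalized to AFC standard curve.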
* = called active by the depositor; i = inactive; ? = inconclusive; nt = no result given; [ ] = another dose, or the depositor's remark. The list is partial, so the mix of outcomes need not match the whole.

SMILES,A488 fluor,Resorufin autofl,TSHR agonist,A647 autofl,AID923
CC1Cc2cc(C3(O)C(=O)c4ccccc4C3=O)ccc2N1 (configuration not stated),i,i,-4%,3.9e-09,-2.1%
CCN1CCCC1CNC(=O)c1ccc(N2CCCC2=O)cc1 (configuration not stated),i,i,6%,1e-09,0.6%
COC(=O)c1[nH]c2ccccc2c1NC(=O)CN1CCN(C/C=C/c2ccccc2)CC1,i,i,?,2.7e-09,-0.8%
COc1ccc(-n2nc3cc(C)c(NC(=O)C(C)C)cc3n2)cc1,i,i,-3%,3.8e-08,1.2%
CC1CN(c2cc3nccnc3cc2F)CC(C)O1 (configuration not stated),i,i,1%,8.5e-09,5.2%
O=c1[nH]c(N2CCc3ccccc3C2)nc2c1CCCC2,i,i,-6%,1.2e-08,-5.6%
COC(=O)c1[nH]c2ccc(C)cc2c1NC(=O)CN1CCCc2ccccc21,i,i,1%,1e-09,1.8%
COc1ccc(-c2nc(CS(=O)CC(=O)NCc3ccco3)c(C)o2)cc1 (configuration not stated),nt,nt,-2%,nt,2.4%
COc1cc(Cn2cnnn2)ccc1O,i,i,4%,5e-09,-0.8%
Cc1cc(C)n2nc3nc(N4CCCC4)nc(-c4ccccc4)c3c2n1,i,i,3%,3.3e-08,2.0%
Cc1ccc(NC(=O)CN(C)S(=O)(=O)c2cccc3nsnc23)cc1C,i,i,-2%,9.2e-09,-4.5%
COc1ccc(-n2c(=O)c(CCc3ccccc3)nc3cnc(N4CCN(C)CC4)nc32)cc1,i,i,10%,1e-09,5.9%
O=C(Nc1ccccc1)NC1CCN(Cc2nnnn2C2CCCCC2)CC1,i,i,1%,1.8e-08,0.1%
Cc1ccccc1CSc1nnc(-c2cccnc2)n1N,i,i,3%,6.1e-09,-2.8%
O=S(=O)(c1ccccc1)N1CCC2(CC1)CN(c1ccncc1)C2,i,i,5%,4e-09,0.3%
CCCCCn1c(=O)[nH]c2cc(C(=O)NCCCN3CCCCC3)ccc2c1=O,i,i,-5%,1.7e-09,1.5%
Cc1cc(N2C(=O)C(O)=C(C(=O)c3ccco3)C2c2cccnc2)no1 (configuration not stated),i,i,19%,1.8e-08,1.0%
O=C(Nc1nc2ccc(S(=O)(=O)N3CCCC3)cc2s1)C1CCCO1 (configuration not stated),i,i,-7%,3.7e-09,0.5%
CCOc1ccccc1NC(=O)N1C2CCCC1CC(NC(=O)C1CC1)C2 (configuration not stated),i,i,?,7.6e-09,-0.4%
CNC(=O)C1CCC(=O)N1Cc1ccc(C)cc1 (configuration not stated),i,i,6%,1.2e-09,0.3%
Cc1cc2ncn(C(=O)N3CCOCC3)c2cc1C,nt,nt,-3%,nt,1.9%
Cc1cc(-c2nnc(SCC(=O)NC3CCCC3)o2)no1,i,i,-1%,1e-09,-0.7%
O=c1c(-c2ccccc2)coc2c(CN3CCOCC3)c(O)ccc12,nt,nt,2%,nt,1.5%
CN(C)/C=N/c1c(C#N)cnn1-c1ncnc2sc(-c3ccccc3)cc12,i,i,?,2.4e-08,4.0%
CCN(CC)S(=O)(=O)c1cc(C(=O)Nc2ccncc2)ccc1Cl,i,i,?,1.4e-09,0.0%
CCOC(=O)CN1C(=O)C(CC)Oc2ccc(Cl)cc21 (configuration not stated),i,i,?,3.5e-09,-1.6%
CC(=O)Nc1ccc(S(=O)(=O)N2CCSC2c2ccccc2Cl)cc1 (configuration not stated),i,i,nt,3.9e-09,-2.3%
CCOC(=O)c1ccn(-c2nc(-c3ccco3)cc(C(F)(F)F)n2)n1,nt,nt,17%,nt,-0.4%
O=C(Nc1ccc2c(c1)OCO2)c1nn(-c2ccccc2)c(=O)c2ccccc12,i,i,?,1e-09,0.9%
O=C(NCc1ccco1)c1cc2ccccc2c(=O)o1,i,i,-2%,2.8e-08,0.7%
COc1cccc(-c2cc(C(=O)NCCc3ccccc3)no2)c1,i,i,6%,2.2e-08,-0.1%
Cn1nnc2cc(C(=O)N3CCCCCC3)ccc21,i,i,4%,1e-09,0.5%
CSc1nc2ccc(S(=O)(=O)N3CCc4ccccc43)cc2s1,i,i,102%,3.2e-08,-3.2%
O=C(Nc1ccncc1)c1cc2ccccc2o1,nt,nt,?,nt,-1.1%
COc1ccc(C2C(C(C)=O)=C(O)C(=O)N2c2cccnc2)c(OC)c1 (configuration not stated),i,i,0%,1e-09,0.3%
Cc1cc(C)nc(SCc2ccccc2C#N)n1,nt,nt,26%,nt,1.0%
CCCNc1cc(=O)n(C)c(=O)n1C,nt,nt,-7%,nt,0.7%
Cc1cccnc1NC(=O)C(C)Oc1ccccc1 (configuration not stated),i,i,9%,1e-09,-1.7%
Cc1cc(Nc2ccc(Br)cc2)n2nc(C)nc2n1,nt,nt,25%,nt,-2.1%
CCOc1ccc2ccccc2c1C(=O)N[C@@H]1C(=O)N2[C@@H]1SC(C)(C)[C@@H]2C(=O)O,i,i,3%[25.6 µM],1e-09,-2.3%[25.7 µM]
O=c1ccc(Br)c[nH]1,i,i,-1%,6e-09,1.2%
O=C(NCc1ccco1)c1ccc(CN2CCOCC2)cc1,nt,nt,-2%,nt,0.9%
O=C(c1cnn2c(C(F)F)cc(-c3ccccc3)nc12)N1CCSCC1,i,i,?,4.5e-08,0.1%
COCC(=O)N1CCC2(CC1)CCN(c1ccccc1)CC2,i,i,-1%,1.8e-08,3.0%
c1ccc(CSc2nnc(-c3c[nH]c4ccccc34)o2)cc1,i,i,3%,2.4e-08,0.2%
Cc1nc(NCCO)c2nc(-c3ccccc3)n(CCN(C)C)c2n1,nt,nt,2%,nt,-1.4%
Cc1ccc(C(NC(=O)N2CCOCC2)=C(Cl)Cl)cc1F,i,i,?,1e-09,-0.1%
Nc1nc(OCc2ccccc2)c2[nH]cnc2n1,i,i,nt,1.2e-08,-0.4%
Cc1ccc(S(=O)(=O)/N=C(\CN2CCOCC2)N2CCCC2)cc1,nt,nt,0%[11.4 µM],nt,1.9%
CCn1ncc(C2=NOC(C(=O)Nc3cccc(C(C)=O)c3)C2)c1C (configuration not stated),nt,nt,10%,nt,4.1%

Continuation:
SMILES,A488 fluor,Resorufin autofl,TSHR agonist,A647 autofl,AID923
CN1CCN(c2nc(-c3ccoc3)nc3ccccc23)CC1,i,i,5µM*,1.4e-08,4.7%
O=C(CCCCn1c(=O)c2ccccc2n(CC(=O)NC2CCCC2)c1=O)NC1CCCC1,i,i,4%[11.4 µM],2.3e-09,0.2%
C=CCOC(=O)C(C(C)=O)C(NC(=O)OC)c1cccc(C)c1 (configuration not stated),nt,nt,-2%[11.4 µM],nt,0.6%[11.5 µM]
CCS(=O)(=O)NCCc1csc(-c2ccccc2)n1,i,i,7%[11.4 µM],4.6e-09,0.6%
Cn1c(=O)n(CCN2CCOCC2)c(=O)c2c1nc1n2CCCN1c1ccccc1,i,i,-8%,1.8e-08,-0.7%
CCOC(=O)Cc1nnc2c(Nc3ccccc3F)nc3nonc3n12,i,i,?,1e-09,-2.0%
COc1ccc(Oc2c(C)oc3cc(OC(=O)N4CCOCC4)ccc3c2=O)cc1,i,i,13%,2.1e-08,-2.1%
COC(=O)C1=C(NC(=O)c2cccc(OC)c2)CCS1,i,i,?,1.4e-08,9.8%
Brc1ccc(-c2nc(-c3ccccn3)no2)o1,nt,nt,20%,nt,0.3%
COc1ccc(Cl)cc1-n1c(N)c(C(N)=O)sc1=S,i,i,-5%,1.5e-09,-0.9%
CCOCC(=O)Nc1nnc(C2CCCCC2)s1,i,i,-2%,3.2e-08,-2.0%
COc1ccc2c(c1OC)C(=O)N1C2SC[C@H]1C(=O)NC1CC(C)(C)NC(C)(C)C1 (some centres not stated),i,i,3%,9.1e-09,0.5%
CC1(C)CC(=O)C(CCC(=O)c2ccccc2)C(C)(C)N1 (configuration not stated),i,i,2%,9.4e-09,-1.1%
CCN(CC(=O)Nc1ccc(S(N)(=O)=O)cc1)S(=O)(=O)c1cc(C)ccc1OC,i,i,0%,2.3e-08,-3.6%
CO/N=C(\C(=O)N[C@@H]1C(=O)N2C(C(=O)[O-])=C(C[N+]3(C)CCCC3)CS[C@@H]12)c1csc(N)n1,i,i,-2%[25.6 µM],3.9e-08,3.0%[25.7 µM]
Cc1cc(NC(=O)c2cccc(COc3ccc(Br)cc3)c2)no1,nt,nt,?,nt,1.6%
COc1ccccc1CCn1c(=O)cnc2cncnc21,i,i,?,1e-09,2.4%
O=C(O)[C@@H](O)c1ccc(F)cc1,i,i,3%[11.4 µM],1.6e-08,-2.3%[11.5 µM]
O=C(c1ccncc1)N1CCC2(CCN(Cc3nccs3)CC2)CC1,i,i,-2%,1e-09,1.3%
CCOc1ccc(-c2nc(CSCC(=O)N3CCN(C(=O)c4ccco4)CC3)c(C)o2)cc1,nt,nt,?,nt,0.0%
CC(C)n1c(CN2CCN(C)CC2)nc2c1c(=O)n(C)c(=O)n2C,i,i,1%,4.9e-08,1.4%
c1ccc(-c2nc3cnccn3c2Nc2ccc3c(c2)OCCO3)cc1,i,i,-9%,3.5e-08,0.0%
CCc1nc(SCC(=O)Nc2ccc(C(=O)O)cc2)n[nH]1,nt,nt,-3%,nt,0.3%
COc1ccccc1OCC(=O)O,i,i,-3%,4.1e-08,1.5%
CN1CCN(Cc2nc3c(c(=O)n(C)c(=O)n3C)n2CCCc2ccccc2)CC1,i,i,4%,1.3e-08,0.9%
Cc1ccc(C)c(N2CCN(C(=O)C3CCCN(S(=O)(=O)c4c(C)noc4C)C3)CC2)c1 (configuration not stated),nt,nt,10%,nt,1.7%
c1ccc(-n2nnc3ccccc32)nc1,i,i,9%[11.4 µM],1.6e-08,-0.2%
COc1ccc(S(=O)(=O)N2CCN(c3ncnc4c(-c5ccccc5)nsc34)CC2)cc1,i,i,-5%,4.5e-08,-1.6%
Cc1ccc(-c2nn3c(C)nnc3s2)cc1NC(=O)c1ccc(OC(C)C)cc1,nt,nt,?,nt,-1.0%
COc1ccc(CCNC(=O)CSc2nc(-c3ccco3)cc(C(F)(F)F)n2)cc1,i,i,?,2.3e-08,1.1%
COC(=O)c1nnn(Cc2ccccc2)c1N,i,i,0%,1e-09,-0.4%
CCOC(=O)C1CCc2nc3ccccc3c(=O)n21 (configuration not stated),nt,nt,3%,nt,0.6%
Cc1onc(-c2ccccc2Cl)c1C(=O)OCC(=O)Nc1ccc2c(c1)OCO2,i,i,0%,5.6e-09,2.4%
CCOC(=O)c1cccc(NC(=O)c2cccs2)c1,i,i,4%,8e-09,1.7%
CCCCc1nc2n[nH]c(N)c2c2c1CCCC2,i,i,nt,8.3e-08,nt
CC(=O)N1CCc2cc(Br)cc(S(=O)(=O)N3CCCCCC3)c21,i,i,3%,2.8e-09,0.7%
Brc1ccc2oc3c(N4CCOCC4)ncnc3c2c1,i,i,27%,1.7e-08,0.2%

Compound profiles, as listed above. Order of screens: A488 fluor, Resorufin autofl, TSHR agonist, A647 autofl, AID923
`CC(=O)N1CCc2cc(Br)cc(S(=O)(=O)N3CCCCCC3)c21` is listed as i, i, 3%, 2.8e-09, 0.7%
`Brc1ccc2oc3c(N4CCOCC4)ncnc3c2c1` is listed as i, i, 27%, 1.7e-08, 0.2%

From PubChem BioAssay
